MT1-MMP act inh – inhibitors of human MT1-MMP activation. 360,000 tested, 0.061% active. AID 651647. GFP/RFP ratio change, % at 20 µM. HT1080 RFP-PRO-GFP cells, GFP/RFP ratio fluorescence, overnight; percent of plate control window, DMSO zero;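 active = GFP/RFP ratio change of at least 30% with cell ATP level not reduced by more than half and red fluorescence within 50% of control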; also: strong numbers were not always called active
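Assay system: HT1080 RFP-PRO-GFP cells | Dosing: 20 µM single dose, 1% DMSO | Incubation: Cells overnight before dosing, compound overnight, 37 °C, 5% CO2 | Evaluation: GFP/RFP fluorescence ratio | Control set: DMSO-only wells and HT1080 RFP-L50D-GFP cell wells as references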
PABP polyA inh – blocks human PABP binding to poly(A) RNA. P11940. fluorescence polarization. inhibition, % at 35 µM. 290,000 tested, 1% active. AID 2014;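 active = 50% or more with normal probe brightness, or confirmed in later tests; inconclusive = above 50% with abnormal brightness, or retests that disagree; inactive = below 50% or failed in later tests; about a fifth of its hits are not listed in these tables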;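 also: calls also rest on retests at 20 µM and on dose response follow-up; controls were probe without protein and protein plus probe with vehicle; some compounds called inactive have numbers as strong as hits; many hits fall short of the cut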
Target sequence (P11940 whole entry, looked up): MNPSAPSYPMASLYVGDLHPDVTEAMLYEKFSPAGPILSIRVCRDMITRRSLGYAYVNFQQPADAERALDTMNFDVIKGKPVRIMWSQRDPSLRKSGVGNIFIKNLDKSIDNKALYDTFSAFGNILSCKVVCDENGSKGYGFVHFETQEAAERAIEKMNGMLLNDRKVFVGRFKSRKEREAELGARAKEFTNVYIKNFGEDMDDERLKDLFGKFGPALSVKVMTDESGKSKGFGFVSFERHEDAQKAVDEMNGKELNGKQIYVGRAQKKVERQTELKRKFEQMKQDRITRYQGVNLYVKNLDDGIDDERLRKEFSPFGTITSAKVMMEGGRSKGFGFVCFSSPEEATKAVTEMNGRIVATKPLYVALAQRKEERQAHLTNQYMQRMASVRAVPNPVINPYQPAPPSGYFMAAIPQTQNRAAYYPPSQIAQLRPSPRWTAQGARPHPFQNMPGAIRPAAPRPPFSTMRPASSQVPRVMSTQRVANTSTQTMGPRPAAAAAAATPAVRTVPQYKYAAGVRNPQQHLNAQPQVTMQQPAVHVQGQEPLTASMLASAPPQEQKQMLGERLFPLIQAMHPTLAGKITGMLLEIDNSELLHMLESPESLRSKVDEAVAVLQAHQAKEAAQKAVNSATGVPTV
UUG fidelity – modulators of start codon recognition fidelity in yeast; S. cerevisiae UUG-firefly luciferase reporter, luminescence/redox ratio; activity score, % at 18.7 µM; 350,000 tested, 0.13% active; AID 602363;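 active = replicate mean at a twofold rise or more, about +100% in these data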;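 also: firefly luciferase made from a UUG start codon reports start codon fidelity; reporter light over untreated wells divided by growth signal over untreated wells; some hits fall short of that in this replicate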
CSC inhib – blocks cancer stem cells; cancer stem cell-like cells viability, luminescence; inhibition, % at 7.5 µM; 300,000 tested, 1.1% active;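 active = mean at 75% or more and at least half the replicates too; inconclusive = mean and replicates disagree; tested in HMLE shEcad cells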;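 also: 0% = median of negative and 100% = median of positive control wells; the first replicate is given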
HIV Env fusion – HIV envelope-mediated fusion inhibition; HeLa-JRFL Env/CEM21 cell fusion, luciferase; inhibition, % at 12.3 µM; 360,000 tested, 1.1% active;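 active = mean replicate inhibition score of at least 50 and every replicate individually at or above 50; inconclusive = only one of the two criteria met; inactive = mean below 50 and not all replicates reaching 50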;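 also: 0% = plate neutral controls and 100% = maraviroc near 300 nM; one replicate is shown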
Rce1 inhib – blocks yeast Ras-converting enzyme; Q03530; yeast membranes, quenched prenylated peptide cleavage fluorescence; calls only; 290,000 tested, 0.27% active; AID 2563;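 active = fall in fluorescence gain of 50% or more versus controls, with final raw signal at or below 3038400; inconclusive = same 50% fall but final raw signal above 3038400; inactive = fall in fluorescence gain under 50%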;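 also: plate controls were neutral control wells for no effect and wells lacking membranes for full effect; tested at 10 µM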
Target sequence (Q03530 whole entry, looked up): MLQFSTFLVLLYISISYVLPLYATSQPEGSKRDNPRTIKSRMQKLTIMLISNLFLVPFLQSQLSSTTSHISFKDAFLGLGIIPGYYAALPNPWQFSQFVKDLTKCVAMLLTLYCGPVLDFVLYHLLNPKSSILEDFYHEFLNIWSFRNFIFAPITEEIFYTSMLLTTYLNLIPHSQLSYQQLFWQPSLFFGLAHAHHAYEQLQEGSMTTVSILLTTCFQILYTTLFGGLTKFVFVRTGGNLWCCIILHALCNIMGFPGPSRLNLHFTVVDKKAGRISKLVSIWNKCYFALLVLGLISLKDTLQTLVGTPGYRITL
eIF4H inh – inhibitors of RNA binding by human eIF4H; Q15056; eIF4H fluorescence polarization binding assay; inhibition, % at 35 µM; 290,000 tested, 0.94% active; AID 2012;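 active = 50% or more with normal probe brightness, or confirmed in later tests; inconclusive = above 50% with abnormal brightness, or retests that disagree; inactive = below 50% or failed in later tests; about a fifth of its hits are not listed in these tables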;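 also: calls also rest on retests at 20 µM and on dose response follow-up; 0% = protein and probe with vehicle and 100% = probe without protein; strong numbers were not always called active; many hits fall short of the cut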
eIF4H inh retest – second read-out of eIF4H inh, no call of its own (marks repeat the call); inhibition, %; compound at 20 µM; confirmation average;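 mean of two retest wells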
PABP polyA inh retest – also measured in PABP polyA inh; calls as there; inhibition, %; compound at 20 µM; confirmation repeats;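 mean of two retest wells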
MT1-MMP act inh RFP – recorded beside MT1-MMP act inh, whose call it bears; RFP signal change, %; measured here: RFP expression control read;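 0 = vehicle wells; hits needed this value within 50% of zero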
Starred values were filed as active, the others as inactive; i = inactive; ? = inconclusive; . = no result given; & = joins results of further samples.

SMILES	MT1-MMP act inh	MT1-MMP act inh RFP	PABP polyA inh	UUG fidelity	CSC inhib	HIV Env fusion	Rce1 inhib	eIF4H inh	others
Cc1ccc2[nH]c3c(=O)n(CC(=O)NCCCN(C)Cc4ccccc4)ncc3c2c1	-1	3	-13	-7	1	10	i	-6
O=C(c1cccc(C(F)(F)F)c1)C1CCCN(C(=O)CCCn2cncn2)C1 (stereo not given)	5	3	6	.	-16	-8	i	3
COc1ccccc1-n1c(N)c(C(=O)NCC2CCCO2)c2nc3ccccc3nc21 (stereo not given)	4	1	9	6	1	24	i	-4
Cc1cc(C)cc(N=c2c([N+](=O)[O-])nn(-c3cccc(Cl)c3)n2O)c1	8	-2	-6	-4	.	46	i	-8
CC1CCc2c(sc3nc(CSc4nnnn4C)[nH]c(=O)c23)C1 (stereo not given)	-5	-6	-8	-5	17	-10	i	-16
Cc1ccc(-n2c(SCc3cc(=O)n4ccsc4n3)nnc2-c2cccnc2)c(C)c1	-2	0	8	-21	-7	.	i	60*	eIF4H inh retest=63*;PABP polyA inh retest=34
Cc1ccc(-c2[nH]c3ccccc3c2SCCNC(=O)c2ccc(S(=O)(=O)N3CCOCC3)cc2)cc1	1	-8	8	-1	23	41	i	-6
Cc1cc(C)n(CC(=O)N/N=C/c2ccc3c(c2)OCO3)n1	-2	4	-9	.	-7	-16	i	-12
COC(=O)C1=C(C)NC(=S)NC1c1ccc(OC(=O)c2ccco2)cc1 (stereo not given)	1	2	-4	.	-8	10	i	6
COC(=O)CSc1nnc(CCc2ccccc2)n1C	0	-3	-2	-22	30	3	i	5
Cc1cccc(CN2CCc3c([nH]c4ccccc34)C2C(C)(C)C)n1 (stereo not given)	0	0	3	-23	-1	17	i	9
O=C(O)C1C2OC3C(OC(=O)C31)C2Br (stereo not given)	4	1	.	-3	.	15	.	.
CC(NC(=S)Nc1ccccc1)C(c1cccs1)N1CCOCC1 (stereo not given)	2	-1	17	-15	-8	11	i	3
CCCCCCCCCNC(=O)[C@H](NC(=O)COc1ccccc1)[C@@H]1NC(C(=O)OC)C(C)(C)S1 (stereo not given in full)	-2	1	.	-3	21	-32	i	.
O=C(Nc1nnc(C2CCCC2)s1)C1CCN(S(=O)(=O)c2ccc(Cl)cc2)CC1	2	-2	-7	-19	.	-24	i	-5
CC(C)NC(=O)CSc1nnc2sc3ccccc3n12	4	-1	-15	.	.	.	i	-19
CC1CN(C(=O)Nc2ccc(F)cc2)C2(CCCCCC2)O1 (stereo not given)	2	4	1	.	-4	-2	i	5
CCN1CCN=C1Nc1ccccc1	-1	2	.	-10	-3	13	.	.
CC12CCCCC1(O)[N+](=O)C1=C(CCCC1)N2[O-] (stereo not given)	9	6	16	-8	0	.	i	30
CCOC(=O)CNc1c(-c2ccc(OC)cc2)nc2ccc(Cl)cn12	2	3	13	-26	0	-37	i	34
O=C(NCC(c1cccs1)N1CCOCC1)c1ccc(Cl)c([N+](=O)[O-])c1 (stereo not given)	2	6	-6	-18	-2	.	i	0
CCOc1ccccc1C(=O)NCC(=O)OCC(=O)N1C(C)CCCC1C (stereo not given)	-9	-3	9	-6	1	-9	i	4
O=C(NCCN1CCOCC1)N1c2ccccc2Sc2ccccc21	-1	1	-1	-6	-15	-23	i	-3
CCCCNC(=S)NNC(=O)c1c(Cl)c(C)nn1C	0	1	-8	.	.	1	i	-4
COCCNC(=O)c1cc(-c2ccccc2OC)on1	1	-1	-6	-17	19	-93	i	-4
Cc1cc(OCC(=O)N(C)Cc2ccccc2)ccc1Cl	4	2	0	-9	-17	-23	i	2
CCCCC(CC)CNC(=O)Cn1c(=S)[nH]c2ncccc2c1=O (stereo not given)	.	.	3	.	4	.	i	43
O=C(CC(c1ccccc1)C1CCCCC1=O)c1ccco1 (stereo not given)	3	0	-9	-9	-3	.	i	2
CCN(CC)c1ccc(/C=C(\C#N)C(=O)NCc2ccccc2)cc1	-57	-1	6	-4	5	.	i	70	eIF4H inh retest=-4;PABP polyA inh retest=45
O=C(COC(=O)c1cc(Br)ccc1O)c1ccc(F)cc1	-3	-2	.	-30	.	17	.	.
O=C(N/N=C/c1ccsc1)c1ccccn1	5	4	38	-31	6	-68	i	-7
CSc1ccc(CN(C)C(=O)CSCC(=O)Nc2ccc(C)cc2)cc1	0	-2	.	-14	18	.	i	.
CC(=O)OCCNC(=O)Cn1cnc2c1c(=O)n(C)c(=O)n2C	2	3	34	-6	-5	.	i	-3
Cc1ccccc1C1CCCN(C(=O)c2cc(COc3c(F)cccc3F)on2)C1 (stereo not given)	2	-2	-6	-25	40	16	i	-2
CC(C)(C)C1CCc2c(sc(N)c2C(N)=O)C1 (stereo not given)	-8	-8	26	-11	9	.	i	11
COc1ccc(C2/C(=C(/O)c3ccc(F)cc3)C(=O)C(=O)N2c2ccccn2)cc1OC (stereo not given)	-1	-2	11	-13	0	-11	i	9
CCC(=O)Nc1ccc(S(=O)(=O)Nc2cc(C)on2)cc1	0	2	2	.	0	-33	i	-4
CC1=C(C(=O)OC(C)C)C2(O)C(=O)c3ccccc3C2(O)N1 (stereo not given)	2	3	59	-19	-17	-44	i	-4	eIF4H inh retest=-4;PABP polyA inh retest=3
CC(C)(O)CC[C@H](OC(=O)c1ccccc1)[C@](C)(O)[C@H]1CC[C@@]2(O)C3=CC(=O)[C@@H]4C[C@@H](O)[C@H](O)C[C@]4(C)C3CC[C@]12C (stereo not given in full)	-1	2	16	7	-13	-3	i	0
Cc1ccc2oc(-c3ccccc3C(=O)O)cc(=O)c2c1	1	-1	-3	-1	-9	.	i	1
O=C(CSc1nc(-c2ccc(Cl)cc2)cs1)Nc1cccc([N+](=O)[O-])c1	0	-14	-9	.	25	28	.	0
O=C(Nc1ccc2[nH]c(=O)[nH]c2c1)c1c(F)c(F)c(F)c(F)c1F	-7	4	5	.	-9	5	i	-25
COc1ccc(OC2CCN(S(=O)(=O)c3ccc(OC)cc3)CC2)cc1	1	-6	0	3	.	-2	i	-11
COc1ccc(NC(C)=O)cc1NC(=O)CSc1nnc(-c2ccncc2)n1C	-1	0	-6	-5	-4	-30	i	-2
Cn1cc(-c2csc(C(O)(c3ccccc3)C(F)(F)F)n2)cn1 (stereo not given)	-3	4	.	-7	.	-3	.	.
COc1ccccc1C(=O)OCCNC(=O)Cn1cnc2c1c(=O)n(C)c(=O)n2C	-5	-8	-3	-11	-42	3	i	2
COc1ccccc1NC(=S)N(Cc1ccccn1)Cc1ccccc1Cl	3	2	3	-6	-2	12	i	-8
CC1(C(=O)NS(=O)(=O)c2ccccc2C(F)(F)F)CCN1C(=O)c1cccc(F)c1 (stereo not given)	0	5	.	-13	.	-5	.	.
O=c1c2ccccc2sn1-c1nccs1	-1	-2	?	.	.	26	i	4
COc1ccc(/C=C2\SC(=S)N(CCCC(=O)Nc3cc(C)on3)C2=O)cc1OC	-25	-1	2	-21	7	18	i	-15
CCOC(=O)NC(=O)C(=CNNc1ncc(C(F)(F)F)cc1Cl)C(=O)NC(=O)OCC	3	4	-2	.	-2	14	i	-8
O=c1c2ccccc2cnn1Cc1n[nH]c(=S)n1-c1ccc(Cl)cc1	1	1	8	.	-7	.	i	-17
CC1(C(=O)NS(=O)(=O)c2ccccc2Cl)CCN1C(=O)COc1ccc(Cl)cc1 (stereo not given)	1	5	.	-1	.	-455	.	.
O=C(Nc1ccc(F)c(Cl)c1)C1CCN(S(=O)(=O)c2cccnc2)CC1	-5	-5	-3	-3	0	-6	i	4
CCOc1cc(-c2noc(-c3ccncc3)n2)cc(Br)c1OC	-1	1	-10	-14	4	-452	i	-7
Cc1cccc(N2CC(C(=O)Nc3ccc4c(c3)OCCO4)CC2=O)c1C (stereo not given)	4	4	8	-24	-5	9	i	-3
CCOc1ccc(-c2c(C(=O)N/N=C(\C)c3cccnc3)nnn2-c2nonc2N)cc1	.	.	-11	-13	-12	8	i	4
Cc1ccc(-c2cc(C(=O)NCc3cccnc3)no2)cc1	6	-3	13	7	-5	-29	i	-8
COCCN(CC1CCCN(C2Cc3ccccc3C2)C1)C(=O)CCC(F)(F)F (stereo not given)	1	5	4	-4	-11	7	i	0
CC(C)[C@H](N)c1cn([C@@H](CO)C(=O)N2CCNCC2)nn1	1	2	.	11	11	1	.	.

The closing two compounds of the part before lead into the next:
SMILES	MT1-MMP act inh	MT1-MMP act inh RFP	PABP polyA inh	UUG fidelity	CSC inhib	HIV Env fusion	Rce1 inhib	eIF4H inh	others
COCCN(CC1CCCN(C2Cc3ccccc3C2)C1)C(=O)CCC(F)(F)F (stereo not given)	1	5	4	-4	-11	7	i	0
CC(C)[C@H](N)c1cn([C@@H](CO)C(=O)N2CCNCC2)nn1	1	2	.	11	11	1	.	.
Cc1cc(NC(=O)COC(=O)c2cc(S(=O)(=O)N3CCOCC3)ccc2N2CCCCC2)no1	2	-2	-9	-2	26	.	i	-19
COc1ccc(C2C(C(=O)NCCN3CCOCC3)c3ccccc3C(=O)N2C2CCCCC2)cc1 (stereo not given)	.	.	-7	.	.	.	i	-9
O=C(Nc1ncc([N+](=O)[O-])s1)c1cccs1	14&6	-32&-34	2&-9	-20&-4	33&32	-12&-16	i	5&1
Cn1nnnc1SCC(=O)N1CCc2ccccc2C1	-4	1	-3	18	5	-31	.	4
O=C(N1CCCCC1)C12CC3CC(CC(C3)C1)C2	-2	4	19	-9	-5	.	.	-6
Cc1nnc(SCc2ccc(Cl)cc2Cl)[nH]c1=O	-6	-2	6	-14	-8	-41	i	-6
O=C(O)C1=CC[C@@H](c2ccc(Cl)cc2)N(S(=O)(=O)c2ccc(Cl)cc2)[C@H]1c1ccccc1	-2	-2	.	-6	12	-12	.	.
COc1ccc(CC(=O)Nc2cc(S(=O)(=O)N3CCOCC3)ccc2N2CCCC2)cc1OC	-4	2	.	-1	-6	22	.	.
CN(CC(=O)Nc1ccccc1Cl)C(=O)CSc1nnc(-c2ccco2)n1C	-5	-2	.	-17	-4	.	.	.
COCCCNC(=O)CN(C1CCCCC1)S(=O)(=O)c1ccc(C)cc1	6	3	-5	-9	.	.	.	0
O=C1NC(=O)C2(CCCCC2)N1	-2	5	.	-6	.	3	.	.
CCOC(=O)C1CCN(Cc2cc(=O)n3c(-c4ccccc4)csc3n2)CC1	0	3	-6	.	-10	-9	i	22
O=C(c1ccncc1)N1CCCC(N2CCN(c3ccc(F)cc3)CC2)C1 (stereo not given)	2	3	5	-6	8	4	i	-12
COc1ccc(N2C(=O)CC(Sc3nnnn3-c3ccc(F)cc3)C2=O)cc1 (stereo not given)	1	4	-5	-11	-5	11	i	-3
O=c1cc(CO)oc(C(Nc2ccccn2)c2ccc(C(F)(F)F)cc2)c1O (stereo not given)	-5	2	-10	-19	-5	.	i	1
CC(=O)Nc1cccc(C(=O)OCC(=O)N(c2ccccc2)C2CCS(=O)(=O)C2)c1 (stereo not given)	-2	2	.	-5	.	8	.	.
O=C(COc1cccc2c1CCN(Cc1ccccc1F)C2=O)N1CCOCC1	.	.	-16	.	-10	.	i	-3
Cc1cc(OCC(=O)OCC(=O)NC2CCCC2)ccc1Cl	0	3	.	-14	-8	-5	.	.

Assay outcomes deposited in PubChem BioAssay by several laboratories.
